# ClpP mod: qHTS Assay for Activators of ClpP | hit rate 1.9% among 340,000 | AID 651965, 2013 | purified B. subtilis ClpP, FRET peptide cleavage, 20 min | Potency, µM (doses to about 57.5 µM), for inactives: at the highest dose activity change, negative = active; active = well fitted falling curve with a large enough effect; inconclusive = small, poorly fitted or top-dose-only effect; inactive = no such curve, though single readings can be large or run the other way; note: potency is the fitted concentration of half-maximal effect; the source files actives as falling curves though it sought activators and does not explain the sign; nearly all actives have a fitted effect of over 65% in size; many hits overshoot -100%
# Target sequence (P80244 whole entry, looked up): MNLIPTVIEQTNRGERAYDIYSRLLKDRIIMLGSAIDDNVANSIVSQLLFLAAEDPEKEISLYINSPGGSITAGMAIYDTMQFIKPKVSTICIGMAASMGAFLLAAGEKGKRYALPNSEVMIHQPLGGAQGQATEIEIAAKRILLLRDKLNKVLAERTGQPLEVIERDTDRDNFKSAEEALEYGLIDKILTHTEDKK
#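 Buffer: 100 mM Tris/HCl pH8, 100 mM KCl, 0.05% low protease BSA, 2.5% glycerol, 0.01% Tween-20. ClpP 10 microg/mL final; 20 min RT; delta FRET normalized to ADEP and DMSO controls.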
# TRPML1 agonist: agonists of human TRPML1 channel; Q9GZU1; TRPML1-expressing cells, Ca2+ dye fluorescence, FDSS; host cell line not named in the record; reference of the full effect not given here; activation, % (test concentration not listed); hit rate 0.12% among 410,000; AID 624414; in the data active = activation above about 50%; inconclusive = about 30% to 50%; inactive = below about 30%; note: 0% is about no effect; the text of the record puts the active cut at 80%
# Target sequence (Q9GZU1 whole entry, looked up): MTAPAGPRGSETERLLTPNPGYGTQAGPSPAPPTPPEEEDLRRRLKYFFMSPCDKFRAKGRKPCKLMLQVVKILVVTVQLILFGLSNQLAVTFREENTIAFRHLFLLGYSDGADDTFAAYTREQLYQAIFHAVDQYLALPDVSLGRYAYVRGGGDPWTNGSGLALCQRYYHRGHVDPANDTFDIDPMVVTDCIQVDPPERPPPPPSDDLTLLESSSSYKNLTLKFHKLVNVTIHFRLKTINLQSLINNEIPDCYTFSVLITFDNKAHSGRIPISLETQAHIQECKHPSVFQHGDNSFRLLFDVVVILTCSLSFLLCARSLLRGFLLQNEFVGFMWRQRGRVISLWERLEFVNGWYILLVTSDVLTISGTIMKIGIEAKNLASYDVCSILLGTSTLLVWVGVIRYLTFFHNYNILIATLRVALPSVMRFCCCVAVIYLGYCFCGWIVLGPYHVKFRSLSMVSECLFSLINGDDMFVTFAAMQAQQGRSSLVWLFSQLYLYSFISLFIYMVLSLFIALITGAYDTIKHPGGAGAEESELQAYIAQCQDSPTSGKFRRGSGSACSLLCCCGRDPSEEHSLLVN
#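 Kinetic FDSS Ca2+ read in Tet-induced TRPML1-DL cells (ABD Ca8 dye plus quencher, 45-90 min RT loading): baseline, then compound, then 110 s agonist window; EC80 agonist 54-4 at 4uM final added afterwards for a 110 s antagonist window.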
# Menin MLL FP FL: inhibitors of human menin-MLL interaction, wild-type MLL peptide; Fluorescence polarization, fluorescein-MLL peptide displacement from menin; FP activity change, % at 61.4 µM; 290,000 tested, under 10 active; AID 1766; inconclusive = falling polarisation curve, or a change in total fluorescence; inactive = total fluorescence flat and polarisation flat or rising; no compound was filed as active; the % refers to the polarisation; negative = inhibition;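 note: % of control where 0% means no effect; inhibitors lower the polarisation; unlabelled MLL peptide was the positive control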
# TRPML1 inh: blocks the human TRPML1 channel | activity change, negative = inhibition, % (concentration not given with the values) | Q9GZU1 | AID 624415 | TRPML1-inducible cells, Ca2+ dye fluorescence, FDSS; stronger effect = lower value; inhibition of EC80 agonist-evoked calcium signal | hit rate 0.02% among 390,000; in the data active means activity change below about -50%; inconclusive means about -30% to -50%; inactive means above about -30%;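 note: stimulus is agonist 54-4 at its EC80 concentration; % is set by controls: 0 for no effect and ±100 for the full control effect; compound concentration not given in the record; the text of the record puts the active cut at -80%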
#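 TRPML1-DL cells, Tet-induced overnight (~16 h, 37 °C) at 1,500 cells/well, were loaded with Ca8 no-wash dye plus quencher for 45-90 min at room temperature. Compounds were pinned during FDSS kinetic reading; agonist 54-4 at EC80 (4 uM final) then added.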
# gsp antagonist: gsp mutant antagonism; gsp-mutant cells, cAMP HTRF, 30 min; control for the full effect not named in the record; Potency, µM (top dose mostly 76.9 µM), for inactives: top-dose activity change, negative = inhibition, usual class: inhibitors; hit rate 0.4% among 340,000; active = falling curve of any shape with a large fitted effect; inconclusive = falling curve, mostly with a smaller effect; inactive = flat or rising curve; cell line not stated here;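 note: intracellular cAMP measured with PDE inhibitor Ro 20-1724 present during compound exposure; potency is the fitted concentration of half-maximal effect; % is set by controls: 0 for no effect and ±100 for the full control effect; nearly all actives have a fitted effect of over 65% in size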
#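 HTRF cAMP measurement after 30 min RT detection following 30 min, 37C compound treatment alongside […] (added as 300 uM solution) in G418-selected cells seeded at 2000/well and grown 16–24 h.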
# gsp agonist: activates gsp, the McCune-Albright syndrome mutation. hit rate 0.13% among 340,000. AID 624287. gsp mutant cells, cAMP HTRF, 30 min; control for the full effect not named in the record. Potency, µM (doses to about 76.9 µM), without a hit: top-dose activation (cAMP increase), usual class: activators; active = well fitted activation curve with a large enough effect; inconclusive = small, poorly fitted or top-dose-only effect, or another doubt; inactive = no such curve, though single readings can be large or run the other way; cell line not stated here;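 note: phosphodiesterase inhibitor Ro 20-1724 added with compounds to block cAMP breakdown; potency is the fitted concentration of half-maximal effect; nearly all actives have a fitted effect of over 60% in size; about a fifth of the inactives were tested at one dose only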
#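 Cells in DMEM/10% FBS with G418 were pretreated with compounds in DMSO plus […] (300 uM stock) for 30 min at 37C. cAMP was measured by HTRF (cAMP-d2 plus anti-cAMP antibody-K) after 30 min at room temperature.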
# The depositor's hits bear a star; ? = inconclusive; . = not tested or not shown; & = joins results of further samples; [ ] = remark or other dose.
SMILES,ClpP mod,TRPML1 agonist,Menin MLL FP FL,TRPML1 inh,gsp antagonist,gsp agonist
FC(F)Sc1ccc(-n2cc(-c3ccc(Cl)cc3)[n+]3c2CCC3)cc1,-1.0%,0.6,6.2,7,5%,-7%
COC(=O)CCC(=O)OC1(C)C(=O)C=C2C=C(C3CC3)N(Cc3ccc4c(c3)OCO4)C=C2C1=O (configuration not stated),-1.3%,-0.2,-2.2[11.7 µM],-5,-3%,.
COc1cc2c(cc1OC)C(C)N(C(=O)c1sc(-c3cnccn3)nc1C)CC2 (configuration not stated),.,2.2,2.0,8,-3%,0%[15.4 µM]
C/C(CC(=O)Nc1ccc2c(c1)OCCO2)=N\NC(=O)COc1ccccc1,-0.7%,-1.5,-0.5,-13,7%,-8%[15.4 µM]
CC(C)Oc1ccc(CNC(=O)c2ccc3c(c2)N(C)C(=O)C2CCCCN32)cc1 (configuration not stated),-15%,2.2,.,8,.,.
OCC#Cc1ncc(C(F)(F)F)cc1Cl,1.5%,-0.4,0.1,-4,-5%,4%[15.4 µM]
CCOc1ccccc1NC(=O)CCc1c(C)nn(-c2ccc(N3CCOCC3)nn2)c1C,-1.4%,0.1,.,0,.,.
CC(Oc1cc2oc(=O)c3c(c2cc1Cl)CCC3)C(=O)NCC1CCC(C(=O)O)CC1 (configuration not stated),-7.8%,0.1,.,-13,-16%,-23%
CO/N=C(/CNC(=O)c1ccc(F)cc1)c1ccc(Cl)cc1,1.7%,3.0,5.6,6,-18%,-32%[inhibitor]
CC(C)[C@@H](CSc1ccccc1)N1CCN(Cc2ccccc2)CCC1=O,-1.6%&1.0%,-1.1&-1.0,2.2,12,-6%,.
Cc1cc(NS(=O)(=O)c2ccc(NC(=S)NC(=O)c3cccnc3)cc2)no1,.,-0.4,0.3,-1,-7%,23%[15.4 µM]
CC(=O)N1CCN(S(=O)(=O)c2cccc(C(=O)NCc3ccc(F)cc3)c2)CC1,.,-0.6,.,2,0%,1%
Cc1cccc(NC(=O)CCc2c(C)nc3c(c(C)nn3C(C)(C)C)c2C)c1C,-13%,3.3,.,-1,.,.
Nn1c(SCc2ccccc2)nnc1C1CCCCC1,.,1.1,-2.9,8,15%,-1%[15.4 µM]
CC1(C)Cc2c(cnn2-c2ccc(F)cc2)C(NC(=O)c2ccc(=O)oc2)C1 (configuration not stated),-6.3%,1.3,.,13,-6%,1%
Cc1ccc2nc(-c3ccc(Cl)c(NC(=O)c4ccc(Br)o4)c3)oc2c1,-9.2%,0.0,.,-5,.,.
COc1ccc(Nc2nc(N)nc(CSc3nnc(C)s3)n2)cc1,-1.1%,-0.8,0.3,13,6%,6%
O=C(NC1CC1)C1CCN(C2CCN(C(=O)c3c(F)cccc3Cl)CC2)CC1,-5.1%,0.5,-1.0,-11,-5%,34%
Cc1ccc(C)c(N2CCN(c3nc4ccccc4c4nc(-c5cccnc5)nn34)CC2)c1,0.9%,-0.3,.,-7,.,.
CC1=C(C(=O)OCc2ccccc2)C(c2ccccc2)NC(=O)N1CCCC(=O)O (configuration not stated),0.6%,-0.4,3.6,5,0%,4%
O=C(NCCCn1ccnc1)c1cc([N+](=O)[O-])cc([N+](=O)[O-])c1,1.2%,-0.3,-1.1,4,4%,-1%
CC(C)c1c(O)ccc2c1CC[C@H]1C(C)(C)CCC[C@]21C,-3.5%,0.6,.,28,6%,.
CCC(=O)Nc1nnc2n1CCS2,0.1%,0.7,.,-5,.,.
COc1ccc(C(=O)c2c3ccccc3[n+]([O-])n2Cc2ccc(C(N)=O)cc2)cc1,-4.1%,1.1,.,2,-11%,?
CCOc1ccccc1NC(=O)c1nnn(CC(=O)Nc2cc(C)cc(C)c2)c1N,3.6%,0.2,.,-14,7%,-33%[inhibitor]

# Another view of some results above.
# Every second line gives: ClpP mod | TRPML1 agonist | Menin MLL FP FL | TRPML1 inh | gsp antagonist | gsp agonist
- CO/N=C(/CNC(=O)c1ccc(F)cc1)c1ccc(Cl)cc1
    1.7% | 3.0 | 5.6 | 6 | -18% | -32%[inhibitor]
- CC(C)[C@@H](CSc1ccccc1)N1CCN(Cc2ccccc2)CCC1=O
    -1.6%&1.0% | -1.1&-1.0 | 2.2 | 12 | -6% | .

# Further compounds.
SMILES,ClpP mod,TRPML1 agonist,Menin MLL FP FL,TRPML1 inh,gsp antagonist,gsp agonist
Cc1cc(C(=O)Oc2ccccc2C(=O)O)c(C)o1,-9.2%,0.1,1.7,1,-13%,-23%
CC(C)OC(=O)c1c(NC(=O)c2cccc(C(F)(F)F)c2)sc2c1CCCC2,-1.8%,-0.3,.,-8,.,.
CCn1cc(C(=O)NCC(C)C)c(=O)c2cc(F)c(N3CCN(C)CC3)cc21,-1.5%,-0.5,1.4,-8,-21%,10%[15.4 µM]
CCc1ccc([C@@H]2C[C@H]3[C@@H](CN2S(=O)(=O)c2ccc(C)cc2)C(=O)C[C@@H](c2ccccc2)N3S(=O)(=O)c2ccc(C)cc2)cc1,-1.2%,1.7,.,2,.,-32%[inhibitor]
COC(=O)c1ccc(N(CC(=O)NC2CCCC2)C(=O)c2ccc(C)s2)cc1,.,1.9,.,5,-3%,1%
CCOc1ccc(-c2nnc(NC3=NCCCCC3)o2)cc1,0.1%,5.1,3.6,2,-24%,-35%[inhibitor]
CC(=O)NCc1ccc(C(=O)COC(=O)COc2ccc(Cl)c(C)c2)s1,-3.0%,0.2,.,10,5%,6%
CC(=O)Nc1ccc(S(=O)(=O)N2CC(=O)NC(=O)C2)cc1,0.8%,1.6,-0.6,6,15%,3%
CCCCN(CC)S(=O)(=O)c1ccc(C(=O)Nc2nnc(CSC)o2)cc1,-0.6%,-0.4,1.7,15,-11%,?
CCOc1nc(SC(C(C)=O)C(=O)Nc2ccccc2)nc(N(C)C)n1 (configuration not stated),?,-0.9,1.5,43,-4%,-6%
CC(C(=O)NCc1ccccc1)N1C(=O)C2CC=C(Cl)CC2C1=O (configuration not stated),28µM*,-0.1,-0.6,0,-2%,3%
CC(NC(=O)Cc1ccccc1)c1cc2c(cc1Br)OCCCO2 (configuration not stated),-1.8%,1.4,-3.1,29,-14%,0%
COc1ccccc1CN(C(=O)CNC(=O)c1ccco1)C(C(=O)NCC1CCCO1)c1ccccc1 (configuration not stated),.,0.7,.,9,-4%,15%[15.4 µM]
Cc1c(C(c2ccccc2Br)c2c(C)n(C)n(-c3ccccc3)c2=O)c(=O)n(-c2ccccc2)n1C,-0.9%,0.1,-7.0,5,-6%,-1%
Cc1ccc(OCC(=O)Nc2ccc(S(=O)(=O)Nc3cc(C)nc(C)n3)cc2)cc1,-1.5%,0.2,5.3,8,-30%,-19%
COc1cc(Br)cc2cc(C(=O)N3CCOCC3)c(=O)oc12,.,0.1,3.5,-13,4%,-1%
Cc1ccc(Nc2nc(C(=O)NCC3CCCO3)cs2)cc1 (configuration not stated),-0.9%,2.1,0.1,-10,1%,6%
CCN(CC)c1ccc(/C=N/NS(=O)(=O)c2ccc(CNC(C)=O)cc2)cc1,.,1.8,5.4,12,-9%,11%[15.4 µM]
c1csc(-c2nc(N3CCOCC3)c3ccccc3n2)c1,.,1.3,1.1,37,-3%,26%[15.4 µM]
CCN(CC)CCNC(=O)c1ccc(NC(=O)c2cccc(S(=O)(=O)N(C)C3CCCCC3)c2)cc1,-0.2%,-0.8,.,-5,3%,7%
COc1ccc(N(CC(=O)NCCc2ccc(S(N)(=O)=O)cc2)S(=O)(=O)c2c(C)noc2C)cc1,1.0%,-0.3,.,-7,19%,?
CCn1c(-c2ccccc2Cl)nn(CC(=O)Nc2ccccc2C)c1=S,-1.1%,0.4,0.3,-16,-3%,-10%
CCOc1ccc2oc(=O)cc(CN3CCN(c4ccccc4)CC3)c2c1,-13%,1.6,.,-15,.,.
COc1ccc(C2(C(=O)Nc3nncs3)CCCC2)cc1,1.7%,-0.3,6.5,-11,0%,?
CC1CCCCC1NC(=O)CSc1nnc(-c2ccco2)n1C (configuration not stated),0.9%,0.4,.,1,-1%,13%
SMILES,ClpP mod,TRPML1 agonist,Menin MLL FP FL,TRPML1 inh,gsp antagonist,gsp agonist
C=CCn1c(COc2ccccc2)nnc1SCC(=O)C(C)(C)C,1.7%,1.1,-1.0,15,1%,-29%
Cc1cc(NC(=O)CSc2ccnc(=O)[nH]2)no1,-0.9%,1.3,.,-10,13%,-8%[15.4 µM]
O=C(CNC(=O)c1ccc(Br)o1)Nc1cccc(S(=O)(=O)N2CCOCC2)c1,-2.2%,0.4,.,-11,-12%,-1%
CCOC(=O)c1nn(-c2ccccc2C)c(=O)cc1OCC(=O)N1CCN(c2ccccc2)CC1,3.4%,0.0,.,-22,-10%,5%
COc1ccc2c(c1)[C@H]1[C@H](CO2)[C@H](c2ccccc2)[C@]2(C)C(=O)Nc3ccc(Cl)cc3C(=O)N12,-9.6%,-0.8,.,-5,?,.
COC(=O)N/N=C/c1cc(OC)c(O)c([N+](=O)[O-])c1,-2.1%,0.0,2.0,-5,?,10%[15.4 µM]
CC(C)N(Cc1nc2ccccc2c(=O)[nH]1)C(=O)c1ccc(NC(=O)CSc2nnnn2C)cc1,-1.4%,-0.2,.,15,3%,-29%
Cc1ccccc1-c1noc(-c2ccc(N3CCN(c4ccccc4)CC3)c([N+](=O)[O-])c2)n1,0.0%,-0.6,.,9,.,.
CC(=O)c1ccc(N=Nc2c(C)[nH][nH]c2=O)cc1,.,0.9,.,-20,2%,15%[15.4 µM]
Cc1ccccc1-c1nnc(SCCOc2ccc3c(C)cc(=O)oc3c2)o1,25µM*,1.7,-2.4,15,1%,?
COc1ccc(-c2ccc(-c3nnn(CC(=O)N4CCOCC4)n3)cc2)cc1,16µM*,0.3,2.1,-3,5%,8%
Cn1c(N)c(C(=O)c2ccc(Oc3ccccc3)cc2)c(=O)n(C)c1=O,.,0.0,6.4,2,0%,1%[15.4 µM]
CCOC(=O)N1CCN(C(=O)COC(=O)CNC(=O)c2ccc(OCC)c(OCC)c2)CC1,.,0.4,.,2,5%,-16%[15.4 µM]
CC(NC(=O)CCn1ccc2cc(S(=O)(=O)N3CCCC3)ccc21)c1ccccc1 (configuration not stated),-1.2%,0.2,0.2,6,6%,19%
CCNC(=S)N(CCN(CC)CC)Cc1cc2cc3c(cc2[nH]c1=O)OCCO3,.,-0.3,0.4,-11,7%,0%
CCOC(=O)CCc1c(C)nc2cc(-c3cc(OC)cc(OC)c3)[nH]n2c1=O,4.2%,1.6,.,5,.,.
CC1CCC(C(C)C)C(OCC(O)C[N+]2(C)CCCCC2)C1 (configuration not stated),.,-0.1,-0.4,-8,.,4%[15.4 µM]
Cc1cccc(N2CCN(C(=O)C3CCC(=O)N(Cc4ccccc4F)C3)CC2)c1C (configuration not stated),0.9%,0.8,1.2,11,-17%,-53%[inhibitor]
COc1ccccc1NC(=O)NCC1CC1(Cl)Cl (configuration not stated),.,0.4,-6.6,-8,5%,?
